gsp agonist – gsp mutant agonism; gsp mutant cells, cAMP HTRF, 30 min; control for the full effect not named in the record; Potency, µM (titrated, usually from 76.9 µM), for inactives: top-dose activation (cAMP increase), usual class: activators; hit rate 0.13% among 340,000; AID 624287; active = well fitted activation curve with a large enough effect; inconclusive = small, poorly fitted or top-dose-only effect, or another doubt; inactive = no such curve, though single readings can be large or run the other way; cell line not stated here;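 also: phosphodiesterase inhibitor Ro 20-1724 added with compounds to block cAMP breakdown; potency is read from the fitted curve at half-maximal effect; nearly all actives have a fitted effect of over 60% in size; about a fifth of the inactives were tested at one dose only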
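Cells in DMEM/10% FBS with G418 were pretreated with compounds in DMSO plus […] (300 uM stock) for 30 min at 37C. cAMP was measured by HTRF (cAMP-d2 plus anti-cAMP antibody-K) after 30 min at room temperature.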
Menin MLL FP FL – menin-MLL binding inhibition, fluorescein peptide; Fluorescence polarization, fluorescein-MLL peptide displacement from menin; FP activity change, % at 61.4 µM; 290,000 tested, under 10 active; AID 1766; inconclusive = falling polarisation curve, or a change in total fluorescence; inactive = total fluorescence flat and polarisation flat or rising; no compound was filed as active; the % refers to the polarisation; negative = inhibition;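 also: % of control where 0% means no effect; inhibitors lower the polarisation; unlabelled MLL peptide was the positive control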
ClpP mod – qHTS Assay for Activators of ClpP | hit rate 1.9% among 340,000 | ATP-dependent Clp protease proteolytic subunit (Bacillus subtilis (strain 168)), P80244 | Potency, µM (series often up to 57.5 µM), without a hit: top-dose activity change, negative = active | purified B. subtilis ClpP, FRET peptide cleavage, 20 min | AID 651965, 2013; active = well fitted falling curve with a large enough effect; inconclusive = small, poorly fitted or top-dose-only effect; inactive = no such curve, though single readings can be large or run the other way; also: potency is read from the fitted curve at half-maximal effect; the source files actives as falling curves though it sought activators and does not explain the sign; nearly all actives have a fitted effect of over 65% in size; many hits overshoot -100%
Target sequence (P80244 whole entry, looked up): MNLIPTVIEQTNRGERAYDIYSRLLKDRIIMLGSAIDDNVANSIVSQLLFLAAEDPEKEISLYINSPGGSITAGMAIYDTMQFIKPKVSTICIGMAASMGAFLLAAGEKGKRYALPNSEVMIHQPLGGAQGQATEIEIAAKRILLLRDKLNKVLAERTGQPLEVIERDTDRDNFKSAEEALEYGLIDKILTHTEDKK
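Purified B. subtilis ClpP, 10 microg/mL final in Tris/HCl pH8 with KCl, BSA, glycerol and Tween-20, cleaved an Abz/nitrotyrosine-quenched decapeptide. Fluorescence (ex 320, em 430) was read at 0 and 20 min at room temperature. Delta was normalized to 5.8 microM ADEP and DMSO/no-enzyme controls.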
gsp antag – antagonists of gsp mutant (McCune-Albright syndrome) | gsp-mutant cells, cAMP HTRF, 30 min; control for the full effect not named in the record | Potency, µM (titrated, usually from 76.9 µM), for inactives: at the top dose activity change, negative = inhibition, hits mostly inhibitors | hit rate 0.4% among 340,000 | AID 624288; active = falling curve of any shape with a large fitted effect; inconclusive = falling curve, mostly with a smaller effect; inactive = flat or rising curve; cell line not stated here;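 also: intracellular cAMP measured with PDE inhibitor Ro 20-1724 present during compound exposure; potency is read from the fitted curve at half-maximal effect; % is scaled to controls: 0 for no effect and ±100 for the full control effect; nearly all actives have a fitted effect of over 65% in size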
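HTRF cAMP measurement after 30 min RT detection following 30 min, 37C compound treatment alongside […] (added as 300 uM solution) in G418-selected cells seeded at 2000/well and grown 16–24 h.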
Sfp inh – blocks B. subtilis Sfp PPTase activity. Q9F4F7. Biochemical Sfp PPTase activity, qHTS. Potency, µM, for inactives: max response, negative = inhibition, hits mostly inhibitors. hit rate 3.5% among 310,000. AID 1490; active = well fitted inhibition curve with a large enough effect; inconclusive = small, poorly fitted or top-dose-only effect, or another doubt; inactive = no such curve, though single readings can be large or run the other way;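 also: the enzyme is Sfp with the accession as filed and its product quenches rhodamine fluorescence; potency is read from the fitted curve at half-maximal effect; 0% = enzyme reaction without inhibitor and -100% = no enzyme wells; top concentration of the series not given in the record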
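Step 1, compound plus 15 nM Sfp-PPTase, 15 min, room temperature. Step 2, add rhodamine-CoA (5 uM) and BHQ-2-YbbR (12.5 uM). Step 3, read 525/598 nm fluorescence at 0 and 30 min.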
TRPV1 potentiator – enhances activation of the human vanilloid receptor TRPV1; Q8NER1; TRPV1-expressing cells, Fluo-8 calcium influx, capsaicin EC20 potentiation; host cell line not named in the record; control for the full effect not named in the record; potentiation, % at 8.33 µM; hit rate 0.02% among 320,000; AID 540277; active means potentiation above 80%; inconclusive means 30% to 80%; inactive means below 30%; also: 0% is about no effect
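TRPV1-expressing cells were cultured overnight at 35.5C and loaded with Fluo-8 calcium dye for 40 to 90 min at room temperature. After a 10 s baseline, compound was added and calcium influx was read kinetically for 3 min (ex 480/em 520 nm).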
TRPML1 blocker – inhibitors of human TRPML1 channel; Q9GZU1; TRPML1-inducible cells, Ca2+ dye fluorescence, FDSS; stronger effect = lower value; inhibition of EC80 agonist-evoked calcium signal; activity change, negative = inhibition, % (no concentration beside the values); hit rate 0.02% among 390,000; in the data active means activity change below about -50%; inconclusive means about -30% to -50%; inactive means above about -30%;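 also: stimulus is agonist 54-4 at its EC80 concentration; % is scaled to controls: 0 for no effect and ±100 for the full control effect; compound concentration not given in the record; the text of the record puts the active cut at -80%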
Target sequence (Q9GZU1 whole entry, looked up): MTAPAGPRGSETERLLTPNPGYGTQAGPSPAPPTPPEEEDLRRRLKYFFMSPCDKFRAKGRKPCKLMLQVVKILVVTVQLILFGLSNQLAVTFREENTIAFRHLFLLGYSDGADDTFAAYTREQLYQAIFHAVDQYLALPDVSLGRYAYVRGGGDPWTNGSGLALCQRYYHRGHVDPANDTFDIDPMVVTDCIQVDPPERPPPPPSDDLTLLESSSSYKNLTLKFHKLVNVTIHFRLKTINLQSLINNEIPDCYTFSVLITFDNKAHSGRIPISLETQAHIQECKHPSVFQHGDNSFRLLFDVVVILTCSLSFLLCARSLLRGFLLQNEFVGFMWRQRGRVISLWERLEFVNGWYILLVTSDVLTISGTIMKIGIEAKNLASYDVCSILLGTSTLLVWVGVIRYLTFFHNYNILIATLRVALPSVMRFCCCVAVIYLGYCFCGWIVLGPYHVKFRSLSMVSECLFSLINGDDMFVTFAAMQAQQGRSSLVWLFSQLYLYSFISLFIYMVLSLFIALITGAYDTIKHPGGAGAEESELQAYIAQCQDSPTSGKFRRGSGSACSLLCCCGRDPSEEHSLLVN
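Tet-induced TRPML1-DL cells loaded with Ca8 no-wash calcium dye were read kinetically on FDSS. Compound addition was followed by EC80 agonist 54-4 (4 uM final); inhibition was read over 110 s.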
Numbers without * were called inactive; ? = inconclusive; nt = no result given; & = joins results of further samples; [ ] = dose if it differs, or a comment.

1	CC(C)C[C@H](NC(=O)c1nc[nH]c1C(=O)N1CCN(C(=O)OC(C)(C)C)CC1)C(=O)OCc1ccccc1
2	O=C(c1ccc2c(c1)CCC2)N1CCN(Cc2c(F)cccc2Cl)CC1
3	CC(C)CN(C(=O)COC(=O)C12CC3CC(CC(O)(C3)C1)C2)C1CCS(=O)(=O)C1 (centres undefined)
4	Nc1c(N(CCC2=CCCCC2)C(=O)C2CC2)c(=O)[nH]c(=O)n1Cc1ccccc1
5	Cc1ccc(C(=O)OCC(=O)Nc2ccc(S(N)(=O)=O)cc2)c(O)c1
6	CC1C(=O)N2CCCc3cc(S(=O)(=O)NCCc4ccccc4)cc1c32 (centres undefined)
7	C[C@H]1CN([C@@H](C)CO)S(=O)(=O)c2ccc(Br)cc2O[C@H]1CN(C)C(=O)NC1CCCCC1
8	Cc1c(-n2cc(C(=O)c3cc(F)ccc3O)cc(C#N)c2=O)c(=O)n(-c2ccccc2)n1C

screen / no.	1	2	3	4	5	6	7	8
gsp agonist	1%	-16%	0%	-43%[inhibitor]	1%	?	-42%[inhibitor]	5%[15.4 µM]
Menin MLL FP FL	0.4	nt	0.5	0.7	-0.3	nt	nt	?
ClpP mod	2.5%	-4.0%	-3.2%	-1.1%	?	-0.1%	0.6%	nt
gsp antag	?	nt	3%	-1%	7%	-2%	nt	-6%
Sfp inh	23%	nt	12%	2%	9%	13%	nt	2%
TRPV1 potentiator	-5	nt	8	-2	?	8	nt	-4
TRPML1 blocker	-9	3	1	2	4	4	7	7

9	CCOC(=O)CNC(=O)c1ccc(C#CC2(O)CCCCC2)cc1
10	CC1(C)N=C(N)N=C(N)N1CCCCc1ccccc1
11	Cc1ccc(S(=O)(=O)N2CCOCC2)cc1NC(=O)COC(=O)COc1ccc(C#N)cc1
12	CCOC(=O)c1c(NC(=S)N2CCOCC2)sc2c1CCN(C(=O)OCC)C2
13	CS(=O)(=O)NCCSCc1ccccc1
14	COC(=O)C1CCN(C(=O)CSc2nc3nc(C)cc(C)n3n2)CC1
15	Oc1ccccc1/C=N/n1c2ccccc2c2ccccc21
16	Cc1ccc(-c2nc3c(c(=O)c4ccccc4n3C)c(=O)n2Cc2ccco2)cc1

screen / no.	9	10	11	12	13	14	15	16
gsp agonist	9%	14µM*	-55%[inhibitor]	-1%[15.4 µM]	-7%	?	-18%	2%[15.4 µM]
Menin MLL FP FL	nt	nt	nt	5.0	0.6	nt	2.0	11
ClpP mod	nt	2.7%	0.9%	nt	-2.1%	-6.7%	-4.4%	nt
gsp antag	0%	-11%	nt	?	8%	17%	-1%	-16%
Sfp inh	25%	nt	nt	50µM*	11%	nt	17%	4µM*
TRPV1 potentiator	-11	nt	nt	-17	-8	13	2	nt
TRPML1 blocker	-12	7	8	25	49	-1	-13	3

17	CCNc1nc(OCC)nc(N2CCC(Cc3ccccc3)CC2)n1
18	COc1ccc2[nH]c(C(=O)NCCN3CCOCC3)cc2c1
19	CN(c1ccccc1)S(=O)(=O)c1ccc(C(=O)Nc2nnc(C3=COCCO3)o2)cc1
20	CN(C)c1ccc(C(CNC(=O)Cc2cccc3ccccc23)N(C)C)cc1 (centres undefined)
21	Cc1ccc(C(=O)C[n+]2cc(-c3ccccc3)n3c2CCCCC3)cc1
22	CN(C(=O)CSc1nnc(N)s1)C1CCCCC1
23	CCOC(=O)c1c(-c2ccccc2)c[nH]c1C
24	COc1cccc(NC(=O)Nc2ccccc2SC)c1

screen / no.	17	18	19	20	21	22	23	24
gsp agonist	-46%	21%	?	5%	-12%&3%	?	-1%	25%
Menin MLL FP FL	1.7	4.2	-1.2	-3.9	-0.1&-0.2	2.4	nt	-0.1
ClpP mod	2.3%	4.0%	-2.3%	0.0%	-1.6%&-2.8%	1.1%	nt	0.9%
gsp antag	-5%	5%	-12%	-3%	5%&1%	5%	4%	-8%
Sfp inh	8%	?	11%	2%	20%&3%	-14%	nt	-11%
TRPV1 potentiator	2	nt	-2	-3	2&-6	-3	nt	1
TRPML1 blocker	3	16	2	-10	10&9	-4	-11	4

Grouped by structure, the entries above containing a cyano group.
8	Cc1c(-n2cc(C(=O)c3cc(F)ccc3O)cc(C#N)c2=O)c(=O)n(-c2ccccc2)n1C
11	Cc1ccc(S(=O)(=O)N2CCOCC2)cc1NC(=O)COC(=O)COc1ccc(C#N)cc1

screen / no.	8	11
gsp agonist	5%[15.4 µM]	-55%[inhibitor]
Menin MLL FP FL	?	nt
ClpP mod	nt	0.9%
gsp antag	-6%	nt
Sfp inh	2%	nt
TRPV1 potentiator	-4	nt
TRPML1 blocker	7	8

Next part.
25	Cc1cccc(N(CC(=O)Nc2c(C)n(C)n(-c3ccccc3)c2=O)S(C)(=O)=O)c1
26	CCCCCCc1nc2ccccc2c(=O)n1NC(=O)c1c(O)c2c(n(CC(C)C)c1=O)CCCC2
27	CC(=O)c1ccc(OC(=O)c2cc3ccccc3oc2=O)cc1
28	CC(=O)c1cccc(CN2CCCC(N3CCN(c4ccccc4F)CC3)C2)c1 (centres undefined)
29	CSc1ccc(/C=N/NC(=O)CN2CCN(Cc3ccc(C)cc3)CC2)cc1
30	O=C(CSc1ncnc2nc[nH]c12)c1ccc([N+](=O)[O-])cc1
31	CSC1=NCCN1C(=O)c1ccc(S(=O)(=O)N(C)C)cc1
32	CC(=O)c1sc(NC(=O)CN2C(=O)C3CCCCC3C2=O)nc1-c1ccccc1 (centres undefined)

screen / no.	25	26	27	28	29	30	31	32
gsp agonist	-1%	?	nt	-59%[inhibitor]	-1%	3%[15.4 µM]	-15%	-8%
Menin MLL FP FL	4.5	-4.8	-0.7	-1.5	-3.6	0.7	-2.1	nt
ClpP mod	1.8%	?	nt	-1.4%	0.8%	-14%	-0.4%	4.0%
gsp antag	6%	4%	nt	-4%	10%	-1%	3%	-2%
Sfp inh	11%	6%	15%	3%	15%	45µM*	2%	nt
TRPV1 potentiator	-7	5	4	4	0	1	-7	13
TRPML1 blocker	22	4	nt	-9	7	16	6	0

33	Cc1cc(NC(=O)COc2ccccc2C)ccc1NC(=O)c1cccs1
34	Cc1nn(-c2ccccc2)c(N2CCCC2)c1/C=N/NC(=S)Nc1cc(C(F)(F)F)ccc1Cl
35	CC[C@H](CO)Nc1nc(Nc2cccc(Cl)c2)c2ncn(C(C)C)c2n1
36	Brc1ccc2ncnc(NCc3cccnc3)c2c1
37	CC(=O)Nc1ccc(N2C(=O)CC(c3ccccc3)CC2=O)cc1
38	CCOc1ccc(OCC(O)CN2CCc3ccccc3C2)cc1 (centres undefined)
39	O=C(NCC1CCN(Cc2ccccc2F)CC1)Nc1cc(F)ccc1F
40	COc1ccc([N+](=O)[O-])cc1N(CC(=O)NCC1CCCO1)S(C)(=O)=O (centres undefined)

screen / no.	33	34	35	36	37	38	39	40
gsp agonist	-9%[15.4 µM]	1%[15.4 µM]	-2%	28%[15.4 µM]	?	-13%	-21%	3%
Menin MLL FP FL	6.0	-0.5	-2.1	4.6	0.9	-0.9	0.9	-1.9
ClpP mod	nt	28µM*	?	-5.4%	-0.6%	-2.2%	-0.7%	-0.9%
gsp antag	-18%	10%	-3%	-1%	3%	3%	1%	-15%
Sfp inh	23%	19%	5%	25%	11%	13%	10%	6%
TRPV1 potentiator	-3	8	12	nt	-7	1	12	7
TRPML1 blocker	-5	-4	2	-10	-7	8	10	7

No new results follow: 2 of the compounds above.
39	O=C(NCC1CCN(Cc2ccccc2F)CC1)Nc1cc(F)ccc1F
40	COc1ccc([N+](=O)[O-])cc1N(CC(=O)NCC1CCCO1)S(C)(=O)=O (centres undefined)

screen / no.	39	40
gsp agonist	-21%	3%
Menin MLL FP FL	0.9	-1.9
ClpP mod	-0.7%	-0.9%
gsp antag	1%	-15%
Sfp inh	10%	6%
TRPV1 potentiator	12	7
TRPML1 blocker	10	7

Following part
41	COc1cc(CNc2ccc3[nH]c(=O)[nH]c3c2)ccc1OCc1ccccc1
42	COc1ccc(-c2nnc(SCC(=O)N(C)C3CCS(=O)(=O)C3)n2C(C)C)cc1 (centres undefined)
43	Cc1cc(NS(=O)(=O)c2ccc(NC(=O)C(F)(F)F)cc2)nc(C)n1
44	COc1ccc(C(=O)Nc2ccc(S(=O)(=O)Nc3cnc4ccccc4n3)cc2)cc1
45	CC(C)CCNC(=O)c1ccc(C2SCC(=O)N2Cc2ccco2)cc1 (centres undefined)
46	CC(=O)/C(N=Nc1cc2c(cc1[N+](=O)[O-])OCCO2)=C(\C)O
47	Cc1cc(C(=O)OC(C)C(=O)Nc2nc(-c3ccccc3)cs2)c(C)o1 (centres undefined)
48	COc1cc(-c2nc(CN(C)Cc3nnc(C)o3)c(C)o2)ccc1F

screen / no.	41	42	43	44	45	46	47	48
gsp agonist	11%	22%	22%	4%[15.4 µM]	-1%	-1%[15.4 µM]	4%	-5%
Menin MLL FP FL	-2.2	nt	-7.3	-0.2	6.5	2.3	2.2	2.1
ClpP mod	2.4%	nt	nt	0.0%	-1.9%	nt	-3.1%	nt
gsp antag	-6%	4%	-7%	-37%	-6%	-14%	-6%	0%
Sfp inh	-14%	nt	-15%	38%[activator]	8.9µM*	9%	2%	20%
TRPV1 potentiator	-8	nt	13	?	-6	-5	14	-1
TRPML1 blocker	11	-10	-1	-10	-7	13	-1	-1

49	CCOC(=O)c1c(C)n(C)c2cc([N+](=O)[O-])c(O)c([N+](=O)[O-])c12
50	Cc1ccc(CN=C2Nc3ccccc3CS2)cc1
51	Cc1ccc(C)c(NC2=NC3(CCCCC3)N=C(N)N2)c1
52	Cc1ccc(C(C)C)c(OCc2ccc(C(=O)N/N=C/c3ccc(C(=O)O)cc3)cc2)c1

screen / no.	49	50	51	52
gsp agonist	?	-20%	6%	9%
Menin MLL FP FL	5.5	2.3	3.0	6.5
ClpP mod	-1.1%	-1.6%	-1.7%	?
gsp antag	-21%	-20%	4%	-28%
Sfp inh	10%	18%	3%	6%
TRPV1 potentiator	nt	4	-28	7
TRPML1 blocker	14	0	24	0

Screens from PubChem BioAssay.
